Assay outcomes (PubChem BioAssay)
HCMV NEC inh: disrupts HCMV UL50-UL53 complex binding; hit rate 0.15% among 190,000; HTRF UL50-UL53 interaction, normalized percent inhibition; inhibition, % (no concentration beside the values);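 active = both replicates at 50% or more, plus weaker picks with an unusually low signal ratio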;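 note: stock transfer was 100 nL into about 20 µL; 0% = negative control wells and 100% = wells with untagged competitor protein; inactives centre near -12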
Sa growth inh: S. aureus growth inhibition; S. aureus RN4220 growth, OD600, 20 h, 42 °C; hits give low values; relative growth, % (no concentration beside the values); hit rate 0.53% among 170,000; AID 720641;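 active = growth at 42 °C up to 50% and 20 or more points under that at 30 °C, or under 10% at both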;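 note: 300 nL library stock went into each well; scaled to the means of positive and negative controls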
GIV Gai3 FP: GIV-Galpha-i interaction inhibition; P08753; Galpha-i3/FITC-GIV peptide fluorescence polarization, 90 min; hits give low values; scaled: aluminum fluoride 0%, vehicle 100%; percent of control (FP), % (concentration not given with the values); hit rate 0.42% among 210,000; AID 1224905;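 active = replicate mean at 85% of control or lower, very high polarization wells dropped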;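 note: wells of about 15 µL received 100 nL stock; the first replicate is given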
Target sequence (P08753 whole entry, looked up): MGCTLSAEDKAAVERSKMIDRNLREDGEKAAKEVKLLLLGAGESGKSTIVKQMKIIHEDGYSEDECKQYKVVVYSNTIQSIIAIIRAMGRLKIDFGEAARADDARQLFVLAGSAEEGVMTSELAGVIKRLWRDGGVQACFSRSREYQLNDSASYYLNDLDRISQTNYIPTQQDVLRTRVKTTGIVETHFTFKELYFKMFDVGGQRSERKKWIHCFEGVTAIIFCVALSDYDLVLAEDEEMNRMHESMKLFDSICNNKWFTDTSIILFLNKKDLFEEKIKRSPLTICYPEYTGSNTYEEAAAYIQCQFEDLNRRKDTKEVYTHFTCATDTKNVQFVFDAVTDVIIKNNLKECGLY
Sa growth inh second temp: also measured in Sa growth inh; calls as there; relative growth, %; measured here: growth at 30 °C;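 optical density after 20 h as mean of two plates; 100% = untreated growth and lower means inhibition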
Starred values were filed as active, the others as inactive; x = no result given; & = joins results of further samples. Not a hit list; any-hit rate near 0.85%.

SMILES	HCMV NEC inh	Sa growth inh	Sa growth inh second temp	GIV Gai3 FP
CCOC(=O)c1nccn1Cc1ccccc1Cl	x	99	104	99
COc1ccc(-c2noc(CSc3nnc(C)n3-c3ccc(F)cc3)n2)cc1	-8	104	80	103
O=C(/C=C/C(=O)N1CCOCC1)NC1CCCc2ccccc21 (stereo not given)	-10	105	102	x
CCCC(=O)OCc1cnc(C)c2oc(=O)c(C(=O)Nc3ccsc3C(=O)OC)cc12	-16	x	x	108
Cc1ccc2oc(-c3ccc(C)c(NC(=O)C(C)(C)Oc4ccc(Cl)cc4)c3)nc2c1	-15	92	80	108
Cc1ccccc1Nc1nc2nonc2nc1N1CCOCC1	-42	x	x	105
[O-][n+]1onc2c1CCc1c-2nn(-c2ccc(Cl)cc2Cl)[n+]1[O-]	-33	92	90	103
CCOc1ccc(S(=O)(=O)N2CCCC(C(=O)NC)C2)cc1Cl (stereo not given)	-30	106	85	94
CCOC(=O)C(C)(C)Sc1nnc(COc2ccccc2)n1CC	21	103	118	106
O=C(NC1CC1)c1ccc(COc2ccc(F)cc2)o1	-25	91	76	101
NC(=O)C1CCN(C(=O)c2ccc3c(c2)sc2nc(-c4ccccc4)cn23)CC1	-24	95	48	103
O=C(O)CN1C(=O)c2cc(Cl)c(Cl)cc2C1=O	x	103	84	103
Cc1ccc(C(=O)N2CCc3ccccc3C2)cc1	-1	96	127	x
C/C(=N\NC(N)=O)C1CC(Cc2ccccc2)C(=O)O1 (stereo not given)	-3	105	113	99
COC(=O)c1c(C)[nH]c(C(=O)N2CCCC(C(=O)NCCN3CCOCC3)C2)c1C (stereo not given)	-25	x	x	97
Cc1ccc2nc(N3CCC(C(=O)NCc4ccccc4)CC3)[nH]c2c1	4	104	69	99
CCOC(=O)c1sc(NC(=O)c2cccc(S(=O)(=O)N3CCCCCC3)c2)c(C(=O)OCC)c1C	-25	x	x	98
CCOc1cc(/C=C2\SC(N)=NC2=O)ccc1OC(C)=O	-79	66	75	115
O=C(O)CCC(=O)N1N=C(c2c(-c3ccccc3)c3cc(Cl)ccc3[nH]c2=O)CC1c1cccc([N+](=O)[O-])c1 (stereo not given)	-28	x	x	103
COc1ccc(C2CC(=O)N(CCc3ccccc3)C(=O)C2)cc1OC	-35	x	x	102
CC(=O)Nc1ccc(S(=O)(=O)NC2=NCN(CCOC(=O)c3ccccc3)CN2)cc1	x	86	89	108
CCNC(=O)C1CCCN1C(=O)OCc1ccccc1 (stereo not given)	-2	77	88	96
Cc1ccc(O)c(C2=Nc3ccccc3N=C(c3cccc(F)c3)C2)c1	-10	106	98	101
COc1ccc(N(C(=O)c2ccncc2)S(=O)(=O)c2ccc3c(c2)n(C)c(=O)n3C)cc1	13	x	x	100
Cc1ccc2ccc3cc(C(=O)NCCCOC(C)C)nc3c2[nH]1	-8	x	x	101
O=C(CCCn1c(=O)c2cccn2c2ccccc21)N1CCN(Cc2ccc3c(c2)OCO3)CC1	-11	96	67	101
NC(=O)CN1c2ccc(F)cc2-c2ccccc2S1(=O)=O	-30	x	x	104
Cc1ccc(Cl)cc1N1CCN(C(=O)c2cccn3c(=O)c4cc(Cl)ccc4nc23)CC1	x	106	84	102
CCc1ccccc1N(CC)C(=O)Cn1nc(Cc2ccncc2)c2ccccc2c1=O	-29	95	68	101
CCc1nc2nc3c(c(Nc4ccc(F)c(Cl)c4)n2n1)CCC3	-13	x	x	106
Cn1c(=Nc2ccccc2C(=O)O)ccc2ccccc21	x	130	81	110
O=C1NC(=O)N(c2ccc(F)cc2)C(=O)/C1=C/c1ccc(-c2ccccc2C(=O)O)o1	-28	x	x	99
CCc1ccc(C2=CC(c3ccc(SC)cc3)n3nnnc3N2)cc1 (stereo not given)	x	91	77	106
O=C(NCCN1C(=O)C2C3C=CC(C3)C2C1=O)N1CCCCC1 (stereo not given)	x	85	87	100
O=C(Nc1ccccn1)c1nc(SCc2ccccc2)ncc1Sc1ccccc1	-5	x	x	99
O=C1CCCN1C(=O)CSc1nnc2sc3ccccc3n12	-7	116	98	x
Cc1ccc(C)c(-c2nnc(NC(=O)c3ccccc3S(C)(=O)=O)o2)c1	-30	2.0*	-0.7*	100
Cc1ccccc1Nc1nc(-c2cccc(Cl)c2)c2c(n1)-c1ccccc1OC2	-4	105	91	103
CCC(C)C(NS(=O)(=O)c1ccc(Cl)c(C(=O)O)c1)C(=O)O (stereo not given)	6	92	98	x
Cc1cc(C(=O)CSc2nccn2Cc2ccccc2)c(C)n1C1CCS(=O)(=O)C1 (stereo not given)	-13	77	83	x
Cc1cc(C(=O)CN2C(=O)NC3(CCCCC3C)C2=O)c(C)n1Cc1ccco1 (stereo not given)	-34	77	93	x
Cc1ccc(-n2cc(-c3ccccc3)c3c(NCc4ccccc4)ncnc32)cc1	x	78	82	106
COc1ccc(CCNC(=O)C(C)(C)C)cc1OC	-3	111	94	x
c1ccc(N=c2[n-][n+](-c3ccccc3)cn2-c2ccccc2)cc1	55*	11	12	x
CCOC(=O)N1CCN(Cc2cc(=O)oc3ccc(OC)cc23)CC1	x	107	94	104
CN(C)C1(CNC(=O)COc2ccccc2)CCCCC1	-7	x	x	97
O=C(CSc1nnc2ccccn12)Nc1cc(C(=O)O)cc(C(=O)O)c1	9	95	89	x
CCCN(CCC)C(=O)c1cc2c(=O)n3cccc(C)c3nc2n1C	-44	105	91	97

Pulled one by one from the entries so far:
SMILES	HCMV NEC inh	Sa growth inh	Sa growth inh second temp	GIV Gai3 FP
Cc1ccc(-n2cc(-c3ccccc3)c3c(NCc4ccccc4)ncnc32)cc1	x	78	82	106
Cc1ccc(C)c(-c2nnc(NC(=O)c3ccccc3S(C)(=O)=O)o2)c1	-30	2.0*	-0.7*	100

Going on with the list.
SMILES	HCMV NEC inh	Sa growth inh	Sa growth inh second temp	GIV Gai3 FP
Cc1[nH]n(-c2ccccc2)c(=O)c1/C=N/NC(C)(C)C	-27	89	64	x
CCOC(=O)c1oc2c(c1C)C(=O)CC(C)(C)C2	x	121	83	110
CCN1c2cc(C)ccc2-n2cccc2C12CCN(C(=O)c1ccccc1Br)CC2	-10	x	x	99
Cn1nc(C(=O)N2CCCCC2)c2c1-c1ccccc1OC2	-6	x	x	105
Cc1csc2c(N3CCOCC3)ncnc12	-3	103	92	110
COc1ccc(C)cc1NS(=O)(=O)c1c(C(=O)N2CCC(C)CC2)c(C)n(C)c1C	x	113	84	103
COC(=O)Cc1c(C)c2ccc3c(c2oc1=O)CN(Cc1ccc(C)cc1)CO3	-12	101	96	102
O/N=C/c1cccc(Cl)c1	-13	x	x	103
CCOc1ccc(S(=O)(=O)N2CCN(c3ccc(OC)cc3)CC2)cc1-c1nc(CC)no1	-9	x	x	104
Cc1ccc(Cl)cc1NC(=O)CCCN1CCSc2ccccc21	8	x	x	105
CCCn1c(NC(C)=C(C#N)C#N)nc2ccccc21	8	96	95	x
Cc1cc(N2CCOCC2)nc2ccc(NC(=O)NCC3CCCO3)cc12 (stereo not given)	-10	x	x	97
Cc1cc(C)c(C(N)=O)c(=S)[nH]1	18	60	95	101
NC(=Nc1ccccc1)SCC(=O)Nc1nonc1N	-14	84	74	x
O=C(CSc1ncnc2ccccc12)OCc1ccccc1	4	93	87	103
CCc1c(C)nc2ncnn2c1Sc1ccccc1NC(=O)Nc1ccccc1	-13	x	x	109
CN(Cc1ccccc1)S(=O)(=O)c1nnc(NC(=O)c2ccccc2Cl)s1	11	133	80	100
CCc1nc(S(C)(=O)=O)c(C#N)cc1C	x	103	92	97
Cc1nc(C)c(CCNS(=O)(=O)c2ccc(F)cc2)s1	x	99	98	109
COc1ccccc1N(CC(N)=O)S(=O)(=O)c1ccccc1	-14	76	103	90
COc1ccc(N2CCN(C(=O)c3ccc4nc(N5CCC(C)CC5)sc4c3)CC2)cc1	-29	102	87	102
CSc1ncc(Cl)c(C(=O)Oc2ccccc2Cl)n1	x	87	87	102
Cc1nn2c(=O)cc(COC(=O)c3cccc(NC(=O)COc4ccccc4Cl)c3)nc2s1	x	82	82	104
CCOc1ccccc1N(CC(=O)N1CCN(c2ccccc2)CC1)S(=O)(=O)c1ccccc1	18	x	x	106
Cc1c(-c2cccc(NC(=O)c3ccccc3F)c2)nc2ncccn12	3	93	88	103
Cc1cc(C)nc(N/N=C/C2=CCC3CC2C3(C)C)n1 (stereo not given)	-23	81	84	x
COC(=O)C1=C(Nc2ccc(OC(=O)Nc3cccc(Cl)c3)cc2)CSC1	-6	22	33	102
O=C(c1cccc(S(=O)(=O)N2CCCCC2)c1)N1CCN(C(=O)c2cccc(S(=O)(=O)N3CCCCC3)c2)CC1	-24	x	x	103
Cc1ccc(NC(=O)Cn2cc(S(=O)(=O)Cc3ccccc3)c3ccccc32)cc1C	-7	94	93	107&111
CCn1c(=O)cc(SCC(=O)NCc2ccc(F)cc2Cl)c2ccccc21	-14	110	86	102
O=C(NC1CC1)c1ccc(CS(=O)c2cccc(Cl)c2)o1 (stereo not given)	-11	107	102	111
CCCCC(=O)OC1=C(C(C)=O)N(Cc2ccccc2)S(=O)(=O)c2ccccc21	-23	87	80	97
Cc1ccc(OCCSc2nc3ccc(NC(=O)c4ccc(F)cc4)cc3s2)cc1	11	98	93	98
COc1ccccc1C(=O)Nc1c(C(=O)Nc2cc(Cl)ccc2C)sc2nc(C)cc(C)c12	-4	104	93	109
CC1=Nc2cc(C(=O)NC(C)c3ccccc3)ccc2Sc2ccccc21 (stereo not given)	x	122	81	109
COc1ccccc1C(=O)NCCn1cc(SCc2ccccc2Cl)c2ccccc21	-14	88	78	101
O=C(NCCCN1CCOCC1)c1nnc(-c2ccc3c(c2)OCO3)o1	x	76	87	96
COc1ccccc1NC(=O)Cc1noc(COC(=O)c2sc3ccccc3c2Cl)n1	-21	106	93	x
Cc1nc(-c2nnc(SCC(=O)c3ccccc3)o2)cs1	0	106	87	103
Cc1ccc(N(Cc2cccs2)C(=O)c2ccccc2)cc1	-21	99	78	101
Nc1ncnc2c1ncn2CCOc1ccccc1	x	90	89	98
Cc1ccc(Cn2c(CO)cnc2SCC(=O)Nc2nc(C)cs2)cc1	13	116	96	109
COc1ccccc1Cn1c(=O)c2cccnc2n(Cc2ccccc2F)c1=O	2	x	x	97
COc1cc(OC)cc(N(C)S(=O)(=O)c2ccsc2-c2nc(-c3ccncc3)no2)c1	-15	x	x	112
Cc1cccc(Nc2nc(C(N)=O)c(NC(=O)c3cccc(F)c3)s2)c1C	-13	x	x	113
CC1CCN(c2nn3c(=O)c(C(=O)NCCCOC(C)C)cnc3s2)CC1	x	114	96	104
Cc1cc(Nc2nc3ccccc3c3nnc(C)n23)ccc1Br	x	89	88	103
NC(=O)CSc1cn(CCNC(=O)c2ccccc2)c2ccccc12	-13	97	81	99

A stretch from the list above, as a working copy:
SMILES	HCMV NEC inh	Sa growth inh	Sa growth inh second temp	GIV Gai3 FP
O=C(NCCCN1CCOCC1)c1nnc(-c2ccc3c(c2)OCO3)o1	x	76	87	96
COc1ccccc1NC(=O)Cc1noc(COC(=O)c2sc3ccccc3c2Cl)n1	-21	106	93	x
Cc1nc(-c2nnc(SCC(=O)c3ccccc3)o2)cs1	0	106	87	103

Compound profiles (already shown). Order of screens: HCMV NEC inh, Sa growth inh, Sa growth inh second temp, GIV Gai3 FP
Profile of O=C(NCCCN1CCOCC1)c1nnc(-c2ccc3c(c2)OCO3)o1 → x, 76, 87, 96
Profile of NC(=O)CSc1cn(CCNC(=O)c2ccccc2)c2ccccc12 → -13, 97, 81, 99
Profile of Cc1ccc(Cn2c(CO)cnc2SCC(=O)Nc2nc(C)cs2)cc1 → 13, 116, 96, 109
Profile of Cc1cccc(Nc2nc(C(N)=O)c(NC(=O)c3cccc(F)c3)s2)c1C → -13, x, x, 113
Profile of COc1ccccc1Cn1c(=O)c2cccnc2n(Cc2ccccc2F)c1=O → 2, x, x, 97

More structures.
SMILES	HCMV NEC inh	Sa growth inh	Sa growth inh second temp	GIV Gai3 FP
COc1ccc(OCCCC(=O)NNc2ccccc2)cc1	-14	103	97	x
CCN1CCN(C(=O)C2CCN(S(=O)(=O)c3ccc4c(c3)CCCC(=O)N4)CC2)CC1	-8	x	x	106
NC(=O)CSc1ncnc2c1nnn2Cc1ccc(F)cc1	x	118	94	98
CCOC(=O)c1ccc(NC(=O)CS(=O)(=O)Cc2nc(-c3ccc(C)cc3)oc2C)cc1	-29	101	94	106
Nc1ncccc1Cl	-15	82	84	103
COc1cc2c(cc1OC)CN(CC(=O)Nc1ccccc1C(=O)Nc1ccc3c(c1)OCO3)CC2	10	109	96	x
CCN(CC)S(=O)(=O)c1ccc(N=Nc2c(O)c3ccccc3oc2=O)cc1	-19	106	97	x
COCCCNC(=O)c1ccc2nc(CCc3ccccc3)oc2c1	x	98	88	99
C/[N+]([O-])=C\c1ccc(F)cc1	-36	107	104	x
Cn1c(O)c(C=Nc2ccc(Cl)cc2)c(=O)[nH]c1=O	-1	102	97	106
COc1ccc(-n2[nH]c(C)cc2=O)cc1	-11	82	50	97
CC(=O)Nc1nnc(SCC#N)s1	-1	111	95	106
CC(C)CSc1nccn2nc(-c3ccc(Cl)cc3)cc12	16	x	x	105
COc1cc2c(cc1OC)C(COc1ccc3c(C)cc(=O)oc3c1)N(C(=O)C(C)C)CC2 (stereo not given)	4	110	100	109
Cc1ccc(N(CC(=O)NCc2ccc(OC(C)C)cc2)S(=O)(=O)N(C)C)cc1	x	107	85	96
O=C1CCCN1c1ccc(S(=O)(=O)Nc2ccc(-c3cc4cc(F)ccc4[nH]3)cc2)cc1	-32	x	x	105
NC(=O)NC1CCCCCCC1	6	109	97	102
